# Screening data deposited in PubChem by National Center for Advancing Translational Sciences (NCATS).
# Rango complex inh = inhibitors of Rango-importin beta complex formation; Potency, µM (titrated, usually from 92.2 µM), inactives show at the highest dose inhibition of complex formation; AID 540263; Rango CFP/YFP FRET sensor + importin beta, 45 min; Q14974; 340,000 tested, 0.031% active; active = rising FRET ratio curve, often small or poorly fitted; inconclusive = mostly compound fluorescence or quenching in the first reads; inactive = flat curves in all reads;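 also: potency is read from the fitted curve at half-maximal effect; 0% = DMSO wells and 100% = buffer wells lacking importin beta; nearly all actives have a fitted effect of over 15% in size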
#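 FRET biosensor Rango (snurportin 1 IBB between N-terminal EYFP and C-terminal Cerulean), 50 nM in PBS/1 mM DTT/0.02% Tween-20/0.1% BSA, preincubated 5 min RT with compound; 0.125 microM importin beta added, 45 min RT, CFP/YFP FRET ratio read.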
# miR-21 reporter = miR-21 reporter, rising signal; 340,000 tested, under 10 active; Potency, µM (doses to about 38.3 µM), for the others: at the highest dose reporter change, positive = more light; HeLa miR-21 FLuc reporter, luciferase, 48 h; AID 2288; active = well fitted rising curve with a large enough effect; inconclusive = small, poorly fitted or top-dose-only effect; inactive = no such curve, though single readings can be large or run the other way;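 also: % of control where 0% means no effect; miR-21 action dims this reporter so a rising signal means less miR-21 action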
#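 HeLa miR-21-FLuc reporter line, endogenous miR-21; 2000 cells/well in DMEM/10% FBS; compound titration up to ~40uM final, 48 h, 37 degree Celsius; luciferase detection reagent, 15 min lysis, CCD luminescence.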
# Rango dissoc inh = prevents RanGTP from dissociating the Rango-importin beta complex. O95149+P62826. Biochemical FRET Rango-importin beta, RanGTP-induced dissociation. Potency, µM (titrated, usually from 46.1 µM), for the others: top-dose activity change, negative = inhibition. 340,000 tested, 0.071% active. AID 540253; active means falling FRET ratio curve, often poorly fitted, with flat reads before Ran was added; inconclusive means other falling curves, or compound fluorescence or quenching; inactive means flat or rising ratio curve;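 also: potency is read from the fitted curve at half-maximal effect; % of control where 0% means no effect; nearly all actives have a fitted effect of over 45% in size; -100% = wells without RanGTP and RCC1; the record marks most hits as doubtful in a second field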
#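 Rango FRET biosensor (snurportin-1 IBB flanked by N-terminal EYFP and C-terminal CFP10) at 0.1 uM, with 0.25 uM importin beta in PBS, 1mM DTT, 0.02% Tween-20, 0.1% BSA. 0.6 uM Ran, 2mM GTP and 0.2 uM RCC1 were then added for 45 min at room temperature. Inhibition read as loss of FRET rise.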
# GLA inh pH 4.5 = blocks human alpha-galactosidase A at pH 4.5; P06280; purified enzyme, 4-MU-alpha-Gal fluorescence, pH 4.5; activity change, negative = inhibition, % at 105 µM; 230,000 tested, under 10 active; AID 1467; inconclusive = small, poorly fitted or top-dose-only inhibition, or a rising curve; inactive = flat fitted curve, though single readings scatter; no compound was filed as active;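 also: 0% = full activity with enzyme and -100% = basal without enzyme; dose as in the result columns while the protocol names 77 µM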
# Target sequence (P06280 whole entry, looked up): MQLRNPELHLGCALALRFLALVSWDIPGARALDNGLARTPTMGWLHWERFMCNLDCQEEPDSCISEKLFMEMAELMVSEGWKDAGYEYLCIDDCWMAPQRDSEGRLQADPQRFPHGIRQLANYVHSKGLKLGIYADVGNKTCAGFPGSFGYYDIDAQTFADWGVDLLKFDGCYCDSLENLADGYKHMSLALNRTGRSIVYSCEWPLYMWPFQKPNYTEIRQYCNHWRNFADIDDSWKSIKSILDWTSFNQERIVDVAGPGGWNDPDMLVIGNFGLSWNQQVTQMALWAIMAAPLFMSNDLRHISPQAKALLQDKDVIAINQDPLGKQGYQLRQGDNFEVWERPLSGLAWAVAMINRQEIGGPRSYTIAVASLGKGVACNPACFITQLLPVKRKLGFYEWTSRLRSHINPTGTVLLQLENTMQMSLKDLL
# * marks the source's active call; other numbers are inactive results; ? = inconclusive; . = no result given; & = joins results of further samples; [ ] = remark or other dose. This is a subset (hit frequency here may not be typical).
# Results follow in this order: Rango complex inh | miR-21 reporter | Rango dissoc inh | GLA inh pH 4.5
> Cc1cc2ccccc2c(=O)n1CC(=O)NCC(=O)N1CCC2(CC1)OCCO2
 : -2.9% | 0.1% | -9.3% | -10.1
> CCOc1ccc(NC(=O)c2ccc(NC(=O)COC(=O)Cc3ccccc3)cc2)cc1
 : -0.4% | -43.8% | 1.8% | 2.2
> COCCNC(=O)c1c(N)n(CCC(C)C)c2nc3ccccc3nc12
 : ? | 22.0% | ? | 3.1
> Cc1cc(=O)oc2cc(OCC(=O)N3C[C@H]4C[C@@H](C3)c3cccc(=O)n3C4)c(Cl)cc12
 : 3.4% | -0.7% | 2.6% | .
> O=C(C(Cc1ccccc1)NS(=O)(=O)c1ccc(F)cc1)N1CCC2(CC1)OCCO2 (stereo not given)
 : 1.0% | 9.9% | 0.4% | -7.7
> CC(=NCc1cccnc1)c1c(O)n(-c2ccccc2)c(=O)[nH]c1=O
 : -1.0% | -6.2% | 10.2% | 3.5
> Nc1c(C(=O)NCc2ccco2)c2nc3ccccc3nc2n1Cc1ccccc1
 : ? | 23.7% | ? | 7.2
> Cc1ccc(CN2CCCN(Cc3ccccc3C)S2(=O)=O)cc1
 : -1.1% | -0.9% | -9.5% | .
> COc1cc2[nH]c(C(=O)N3CCC4(CC3)OCCO4)cc2c(OC)c1OC
 : 1.5% | 0.0% | 6.6% | .
> CCC(=NCC1CCCO1)c1c(O)[nH]c(=O)[nH]c1=O (stereo not given)
 : -0.8% | -11.0% | -11.6% | 1.2
> O=C(CN1CCCCC1)c1ccccc1F
 : 0.2% | -2.8% | 5.9% | 4.8
> CCn1cc(C(=O)N2CCOCC2)c2ccccc21
 : 3.4% | 5.3% | 14.8% | 2.2
> CN(C)CCCN=Cc1c(O)n(Cc2ccco2)c(=O)[nH]c1=O
 : 2.0% | 1.0% | -0.3% | -5.9
> CCC(=NCCCO)c1c(O)n(-c2ccc(OC)cc2)c(=O)[nH]c1=O
 : -4.0% | -11.3% | -4.2% | 1.0
> COC(=O)c1cccc(N=Cc2c(O)n(Cc3ccc(F)cc3)c(=O)[nH]c2=O)c1
 : -2.8% | -5.0% | -2.9% | -9.4
> COC(=O)C1=C(c2cc3ccccc3s2)C[C@@H]2CC[C@H]1N2C(=O)NCc1ccc(F)cc1
 : 1.1% | . | -0.2% | .
> CSc1cccc(CNC(=O)C2CCC(=O)N(Cc3cccc(C(F)(F)F)c3)C2)c1 (stereo not given)
 : 0.5% | -41.5% | 2.9% | .
> Cc1ccc(-n2c(O)c(/C=N/c3ncc(Br)cc3Br)c(=O)[nH]c2=O)cc1
 : 0.3% | 0.2% | 1.2% | 8.6
> C=CCN1C(=O)NC(=O)/C(=C/c2ccoc2)C1=O
 : ? | 0.0% | ? | 7.9
> CN1CCC2(O)OCCCC2C1 (stereo not given)
 : 1.6% | -0.8% | 16.9% | -14.1
> CCOc1cc(C(=O)N2CCC3(CC2)OCCO3)cc(OCC)c1OCC
 : ? | -1.7% | 6.5% | -5.1
> C[N+]1(C)CCOC(O)(c2ccc(-c3ccc(C4(O)C[N+](C)(C)CCO4)cc3)cc2)C1 (stereo not given)
 : 0.6% | 2.3% | 17.5% | -1.2&3.8
> Cc1ccc(C2(O)CCN3CCCCC32)cc1 (stereo not given)
 : 1.3% | 4.5% | 7.4% | -6.6
> COC(=O)C1=C(c2ccc(C(C)=O)cc2)C[C@@H]2CC[C@H]1N2C(=O)N1CCCC1
 : -0.6% | . | -11.1% | .
> O=c1[nH]c(O)c(C=Nc2ccc(F)c(Cl)c2)c(=O)[nH]1
 : 1.3% | 0.7% | -14.9% | .
> Cc1cc(C)[n+](C2C3CC4CC(C3)CC2C4)o1 (stereo not given)
 : 3.6% | -5.1% | 26.9% | 4.6
> O=C(c1ccccc1)c1cn(CC(=O)N2CCOCC2)c2ccccc12
 : -3.4% | -6.3% | -2.2% | -0.5
> COc1ccccc1N1CCN(CCc2c[nH]c3cc4c(cc23)OCO4)CC1
 : -1.0% | . | -2.2% | .
> Cc1nc(Cl)sc1C(=O)Nc1ccc2ccccc2c1
 : -0.6% | -69.7% | -3.7% | -5.7
> Clc1cccc(N2CCNCC2)c1Cl
 : -0.7% | -19.4% | 12.3% | 2.0
> Cc1c2cnn(CC(=O)N3CCC4(CC3)OCCO4)c(=O)c2c(C)n1Cc1cccc(Cl)c1
 : ? | 5.1% | 5.8% | .
> CC(=O)O[C@@]12CO[C@@H]1C[C@H](O)[C@@]1(C)C(=O)[C@H](O)C3=C(C)[C@@H](O)C[C@@](O)([C@@H](OC(=O)c4ccccc4)C12)C3(C)C (stereo not given in full)
 : 0.9% | 16.5% | 10.7% | .
> CCC1(CC)C(=O)C=CNC1=O
 : -2.4% | . | -6.5% | 7.4&0.3
> C=CCn1c(O)c(C=Nc2ccc(N(CC)CC)cc2)c(=O)[nH]c1=O
 : ? | -4.7% | ? | 2.5
> CC(C)c1ccc(C2N3CCCN23)cc1 (stereo not given)
 : 2.2% | -15.1% | 5.9% | 5.1
> O=C(Nc1nccs1)C(Cl)(Cl)Cl
 : -2.8% | 0.6% | -1.2% | 0.1
> Cc1ccc(NC(=O)C2CCN(C(=O)c3cccs3)CC2)cc1
 : ? | -1.4% | -7.2% | .
> CCCCn1c(O)c(C(CC)=NCc2ccc3c(c2)OCO3)c(=O)[nH]c1=O
 : 3.3% | 10.3% | -2.9% | -3.1
> Cc1cc2ccccn2c1C(C[N+](=O)[O-])c1c(F)cccc1Cl (stereo not given)
 : -0.2% | 19.3% | 0.7% | .
> CCOC(=O)c1c(-n2c(C)cc(C=C3C(=O)NC(=S)NC3=O)c2C)sc2c1CCCC2
 : ? | -1.5% | 1.8% | -1.0
> CC12CCC(=O)C=C1CC(O)C1C2CCC2(C)C1CCC2(C)O (stereo not given)
 : 0.2% | . | 5.5% | .
> CCC1CN1P(=O)(c1ccccc1)N1CC1CC (stereo not given)
 : -3.8% | . | 6.8% | .
> O=C(Nc1ccccc1)Oc1ccccc1
 : 5.6% | -16.7% | 0.2% | 0.2
> Cc1cc(C=C2C(=O)N(C)C(=S)N(C)C2=O)c(C)n1C1CCCCC1
 : -3.7% | -6.1% | 2.5% | -1.8
> CN1C(=O)C(=Cc2ccc(Sc3ccccc3)o2)C(=O)N(C)C1=O
 : 1.5% | -0.2% | -3.4% | 2.7
> CN(C)CC1CCCCC1OC(=O)c1ccc(Cl)c(Cl)c1 (stereo not given)
 : 5.2% | -3.8% | -14.6% | 4.5
> Cc1oc(-c2ccc(F)cc2F)nc1CN1C[C@@H]2C[C@@H](C1)c1cccc(=O)n1C2
 : 3.0% | -0.8% | 0.4% | 0.7
> NNCc1cccc(O)c1
 : ? | -0.2% | -9.4% | -11.6&2.0
> CCCCCCn1c(=O)c(C(=O)Nc2c(C)n(C)n(-c3ccccc3)c2=O)c(O)c2ccccc21
 : 3.4% | -2.5% | 1.2% | 0.5
> CCCCn1c(=O)c(C(=O)Nc2ccccn2)c(O)c2ccccc21
 : -1.2% | -9.2% | ? | .
> COc1ccccc1-n1c(O)c(/C=C2\C=Nc3ccccc32)c(=O)[nH]c1=O
 : ? | 5.3% | -18.2% | .
> Cc1nc2ccccc2c(=O)n1-n1cnnc1
 : 5.3% | -6.1% | -9.8% | 0.5
> COC(=O)C[C@]1(C(=O)OC)CN(C#N)N(c2ccc(Cl)cc2)C12c1ccccc1-c1ccccc12
 : 11.9% | ? | 4.4% | -12.4
> CCn1ccnc1CN1CCCC(C(=O)c2ccc(OC)cc2OC)C1 (stereo not given)
 : -2.7% | 5.2% | 1.2% | 2.6
> CCOC(=O)[C@]12Cc3ccccc3[C@H]1N(Cc1ccccc1)C(=O)c1ccccc12
 : 0.2% | . | -0.1% | .
> CCOC(=O)C1(CCCc2ccccc2)CCN(C2CCC2)CC1
 : -0.6% | -3.3% | 0.0% | 6.8
> COc1ccc(O)c2c(=O)c3c(OC)cc4c(c3oc12)C1C=COC1O4 (stereo not given)
 : 0.1% | 0.1% | -11.9% | -10.6
> C[C@]12CCC(=O)C=C1CCC1C2CC[C@@]2(C)C1CC[C@@H]2O (stereo not given in full)
 : -1.1% | . | -1.1% | .
> Cc1nc2ccc(Nc3nc4cc(S(=O)(=O)N5CCOCC5)ccc4o3)cc2s1
 : ? | -29.0% | ? | -0.1
> Cc1cc(Cl)ccc1OC(C)C(=O)O (stereo not given)
 : -0.7% | -4.2% | 7.7% | -9.9

# Next structures:
# Results follow in this order: Rango complex inh | miR-21 reporter | Rango dissoc inh | GLA inh pH 4.5
> CN[C@@H](C)[C@@H](O)c1ccccc1
 : 1.6% | -7.5% | 1.5% | .
> COc1ccc(C(=O)N2Cc3cnnn3-c3ccccc3C2C#N)cc1 (stereo not given)
 : -0.1% | . | 15.8% | .
> CN1C(=O)N(C)C(=O)C2(Sc3ccccc3C2=O)C1=O
 : -0.5% | -3.0% | -19.3% | 12.2
> CCC1C(C#N)=C(N)Oc2c1c(=O)oc1ccccc21 (stereo not given)
 : 1.1% | 0.0% | 5.3% | .
> C=C(C=O)C[C@@H]1C[C@H](O)C2OC3C[C@]4(C)OC5/C=C\CC6OC7C(CC=CCC6OC5CCCC4OC3CC2O1)OC1CC2OC3CC(=O)OC3C[C@@H](C)C[C@@]2(C)OC1C[C@@H]7C (stereo not given in full)
 : 0.8% | ? | 5.3% | -15.8
> COc1ccc(CCC(=O)NCCc2cnc[nH]2)cc1
 : -0.2% | -0.4% | -10.5% | .
> Clc1ccc2c(N3CCNCC3)ccnc2c1
 : 3.6% | -16.1% | -3.4% | 10.1
> O=C1NC(=O)C(Nc2ccccc2)C(=O)N1
 : 0.6% | . | 11.3% | .
> O=C1NC(=S)N(C2CC2)C(=O)/C1=C/c1ccc2c(c1)CCN2CCCCl
 : -0.3% | 1.9% | -14.9% | -8.5
> COC(=O)C1=C(c2c(C)noc2C)C[C@@H]2CC[C@H]1N2C(=O)NC1CC1
 : -1.0% | . | -4.5% | .
> CCn1c(=O)cc(OCC(=O)N2CCC3(CC2)OCCO3)c2ccccc21
 : 0.1% | -5.6% | 0.0% | 1.3
> CC(Cc1ccccc1)[n+]1cc(/N=C(\[O-])N(C)C)on1 (stereo not given)
 : 0.9% | -15.1% | 38.4% | 4.1
> Cc1ccnc(-n2c(C)cc(/C=C3\C(=O)NC(=S)N(C)C3=O)c2C)c1
 : 0.2% | -3.7% | -10.6% | -11.5
> CCCC[N+]12CCC(CC1)C(C(=O)c1cccs1)C2 (stereo not given)
 : 0.8% | 0.8% | 23.7% | 0.2
> Cc1ccccc1[N+](=O)[O-]
 : -1.0% | . | -1.8% | .
> C[C@H](NC(=O)CCC(=O)N1C[C@H]2C[C@H](C1)c1cccc(=O)n1C2)c1ccccc1
 : 0.8% | -4.5% | 3.9% | .
> O=C1NC(=O)C(CCc2ccccn2)(Cc2ccc3c(c2)OCO3)C(=O)N1CCc1ccccc1 (stereo not given)
 : -5.4% | 13.0% | 0.3% | -2.7
> Cc1ccc(C)c(Cn2c(C(=O)O)c(C=O)c3ccccc32)c1
 : ? | 1.5% | ? | 3.8[21.1 µM]
> CN1CC(C(=O)c2ccc([N+](=O)[O-])cc2)C(c2ccc(Cl)cc2)C1 (stereo not given)
 : -1.4% | -2.6% | -2.2% | .
> CCC1(c2ccccc2)C(=O)NC(=O)NC1=O
 : -0.3% | . | 7.3% | -1.4
> CCN(CC)C(=O)c1ccc(NC(=O)c2cc(-n3cnnc3)ccc2Cl)cc1
 : 1.3% | 0.8% | ? | -6.8
> COC(=O)C1=C(c2ccc(C(C)=O)cc2)C[C@@H]2CC[C@H]1N2C(=O)NC(C)C
 : 2.1% | . | 6.8% | .
> COC1=C[C@@H]2C3=C([C@@H]2C1=O)[C@@H](NC(C)=O)CCc1cc(OC)c(OC)c(OC)c13
 : -2.7% | . | 4.5% | .
> COc1cc(C(=O)NC(=S)N2C[C@H]3C[C@H](C2)c2cccc(=O)n2C3)cc(OC)c1OC
 : 0.4% | 1.8% | -6.4% | .
> CCOP(=O)(OCC)c1nc(-c2cccc3ccccc23)oc1N1CCCCC1
 : ? | 15.3% | -14.9% | ?
